From PubChem
OX1R antag = antagonists of human orexin 1 receptor (OX1R); 330,000 tested, 1.8% active; O43613; OX1R-expressing cells, FRET antagonist read-out; inhibition, % at 6.6 µM; in the data active means inhibition mostly above about 38%, no sharp cut-off; inactive means mostly below about 40%;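 further: 0% = agonist challenge alone and 100% = reference antagonist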
STK33 inh = inhibitors of human STK33 kinase. Q9BYT3. inhibition, % at 10 µM. purified STK33, MBP phosphorylation, ADP-Glo luminescence. 320,000 tested, 0.073% active;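 active means inhibition at or above 25%, using the most active replicate where run in duplicate; inactive means inhibition below 25%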
Target sequence (Q9BYT3 whole entry, looked up): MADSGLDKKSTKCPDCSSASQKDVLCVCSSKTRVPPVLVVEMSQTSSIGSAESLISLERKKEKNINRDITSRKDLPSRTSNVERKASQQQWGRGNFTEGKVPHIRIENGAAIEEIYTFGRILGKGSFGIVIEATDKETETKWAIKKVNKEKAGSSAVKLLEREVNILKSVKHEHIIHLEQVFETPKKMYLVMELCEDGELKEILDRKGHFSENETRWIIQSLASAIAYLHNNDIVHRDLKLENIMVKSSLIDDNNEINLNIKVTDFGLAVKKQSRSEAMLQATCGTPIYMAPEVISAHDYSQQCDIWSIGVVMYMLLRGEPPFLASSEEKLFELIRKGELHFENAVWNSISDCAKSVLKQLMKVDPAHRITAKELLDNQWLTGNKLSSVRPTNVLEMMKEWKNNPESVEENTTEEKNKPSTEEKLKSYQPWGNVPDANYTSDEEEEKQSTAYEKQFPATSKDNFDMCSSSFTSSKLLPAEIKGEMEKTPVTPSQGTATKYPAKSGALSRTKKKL
An asterisk follows results filed as active; / = no result given. An excerpt; most or all hits stand in other tables.

> CCOP(=O)(Cc1ccc(C#N)o1)OCC
  OX1R antag: 24 | STK33 inh: -0.6
> c1ccc(NC2=NCCCS2)cc1
  OX1R antag: / | STK33 inh: -0.9
> Cc1cc(NC(=O)COC(=O)c2c(C)nn(Cc3ccccc3)c2Cl)no1
  OX1R antag: 16 | STK33 inh: 0.1
> O=C(O)C(Cl)Cl
  OX1R antag: 24 | STK33 inh: -0.9
> COc1ccccc1NC(=O)c1cn(CCC#N)nc1-c1cccc(Cl)c1
  OX1R antag: / | STK33 inh: -0.1
> CC(=NCCc1c[nH]c2ccccc12)c1c(O)n(Cc2ccccc2)c(=O)[nH]c1=O
  OX1R antag: 9 | STK33 inh: 0.6
> CCCc1cc(=O)oc2cc(OCC(=O)N3C[C@H]4C[C@@H](C3)c3cccc(=O)n3C4)ccc12
  OX1R antag: 12 | STK33 inh: 3.0
> COC(=O)C1=C(c2cccc(OC)c2OC)C[C@@H]2CC[C@H]1N2C(=O)NC1CC1
  OX1R antag: 12 | STK33 inh: 0.2
> CN1CCCC(C(=O)c2ccc(Cl)cc2)C1 (stereo not given)
  OX1R antag: 7 | STK33 inh: -0.5
> CCCCn1c(O)c(/C=N/N2CCCCC2c2cccnc2)c(=O)[nH]c1=S (stereo not given)
  OX1R antag: 8 | STK33 inh: -0.7

The last 2 compounds of the section above come first, to join the parts:
> CN1CCCC(C(=O)c2ccc(Cl)cc2)C1 (stereo not given)
  OX1R antag: 7 | STK33 inh: -0.5
> CCCCn1c(O)c(/C=N/N2CCCCC2c2cccnc2)c(=O)[nH]c1=S (stereo not given)
  OX1R antag: 8 | STK33 inh: -0.7
> CC(=NCc1ccco1)c1c(O)n(-c2ccc(Cl)cc2)c(=O)[nH]c1=O
  OX1R antag: 13 | STK33 inh: -1.9
> CN1C(=O)COc2c(C(=O)NC3CN4CCC3CC4)cc(Cl)cc21 (stereo not given)
  OX1R antag: 21 | STK33 inh: -2.5
> CC(C)CCn1c(N)c(C(=O)OCC2CCCO2)c2nc3ccccc3nc21 (stereo not given)
  OX1R antag: 53 | STK33 inh: -1.1
> COc1ccc(C(C)=O)cc1Cc1c(O)[nH]c(=S)[nH]c1=O
  OX1R antag: -2 | STK33 inh: -0.8
> O=C(Nc1ccc2ccccc2c1)N1C[C@H]2C[C@@H](C1)c1cccc(=O)n1C2
  OX1R antag: 14 | STK33 inh: -1.2
> O=C(c1cc2ccccc2oc1=O)N1CCC2(CC1)OCCO2
  OX1R antag: 10 | STK33 inh: -1.6
> CCOc1ccc(NC(=O)c2c(O)[nH]c(=O)[nH]c2=O)cc1
  OX1R antag: 25 | STK33 inh: 0.6
> COC(=O)C(O)(c1ccc(NC(=O)c2cccs2)c(C)c1)C(F)(F)F (stereo not given)
  OX1R antag: 13 | STK33 inh: -2.4
> CN(C)C1=C(C#N)C(c2ccccc2)=NP(N(C)C)(N(C)C)=N1
  OX1R antag: 17 | STK33 inh: -1.2
> CCN(CC)S(=O)(=O)N1CCC(C(=O)N2CCC3(CC2)OCCO3)CC1
  OX1R antag: 10 | STK33 inh: 1.2

> COc1cc(CC2(CCc3ccncc3)C(=O)N(C)C(=O)N(C)C2=O)cc(OC)c1OC
  OX1R antag: 16 | STK33 inh: -0.3
> O=C(NC(Cc1cnc[nH]1)C(=O)O)c1ccccc1 (stereo not given)
  OX1R antag: 8 | STK33 inh: -1.9
> O[C@@H]1CCCN2CCc3c([nH]c4ccccc34)[C@H]12
  OX1R antag: 15 | STK33 inh: -0.8
> COc1ccccc1CCNCc1cc2c(cc1[N+](=O)[O-])OCO2
  OX1R antag: 59 | STK33 inh: -1.0
> C[C@]12CC[C@H](O)CC1=CC[C@@H]1[C@@H]2CC[C@]2(C)C(=O)CC[C@@H]12
  OX1R antag: 15 | STK33 inh: -1.2
> Cn1c(O)c(C=Nc2ccc(Br)cc2)c(=O)n(C)c1=O
  OX1R antag: 11 | STK33 inh: -1.1
> CNCC(=O)c1ccccc1
  OX1R antag: 7 | STK33 inh: -0.1
> c1ccc2c(CCNC3CCCCC3)c[nH]c2c1
  OX1R antag: 21 | STK33 inh: -1.2
> Cc1c(C=O)c2ccccc2n1Cc1ccc(F)cc1
  OX1R antag: 39 | STK33 inh: 0.0
> O=S(=O)(c1ccccc1)N1CN2CCN(C2)C1
  OX1R antag: 32 | STK33 inh: 1.2

Reprinted at random: seven entries already listed.
> C[C@]12CC[C@H](O)CC1=CC[C@@H]1[C@@H]2CC[C@]2(C)C(=O)CC[C@@H]12
  OX1R antag: 15 | STK33 inh: -1.2
> COC(=O)C1=C(c2cccc(OC)c2OC)C[C@@H]2CC[C@H]1N2C(=O)NC1CC1
  OX1R antag: 12 | STK33 inh: 0.2
> O=S(=O)(c1ccccc1)N1CN2CCN(C2)C1
  OX1R antag: 32 | STK33 inh: 1.2
> CCCCn1c(O)c(/C=N/N2CCCCC2c2cccnc2)c(=O)[nH]c1=S (stereo not given)
  OX1R antag: 8 | STK33 inh: -0.7
> CC(=NCc1ccco1)c1c(O)n(-c2ccc(Cl)cc2)c(=O)[nH]c1=O
  OX1R antag: 13 | STK33 inh: -1.9
> O[C@@H]1CCCN2CCc3c([nH]c4ccccc34)[C@H]12
  OX1R antag: 15 | STK33 inh: -0.8
> CN1C(=O)COc2c(C(=O)NC3CN4CCC3CC4)cc(Cl)cc21 (stereo not given)
  OX1R antag: 21 | STK33 inh: -2.5

Next section
> CCCCn1c(O)c(C(CC)=NCc2ccc(F)cc2)c(=O)[nH]c1=O
  OX1R antag: 4 | STK33 inh: -0.5
> O=C(C1CCCN(c2nnc(-n3cccc3)s2)C1)N1CCC2(CC1)OCCO2 (stereo not given)
  OX1R antag: 11 | STK33 inh: 0.4
> c1cncc(C2CCCCN2Cc2ccc3c(c2)OCO3)c1 (stereo not given)
  OX1R antag: 9 | STK33 inh: 3.2
> COc1ccc(CN2C(=O)CC(=O)NC2=S)cc1
  OX1R antag: 17 | STK33 inh: -2.1
> Cc1ccc(CN2CCN(Cc3ccccc3)CC2)cc1
  OX1R antag: 0 | STK33 inh: 0.1
> COc1ccc(OCC#CCN2CCC(C)CC2)cc1
  OX1R antag: 14 | STK33 inh: -1.2
> CCCCn1c(=O)c(C=Nc2ccc(Cl)cc2)c(O)n(Cc2ccco2)c1=O
  OX1R antag: 16 | STK33 inh: -0.3
> COc1ccc2[nH]cc(C3=CCNCC3)c2c1
  OX1R antag: 23 | STK33 inh: 3.4
> CCOc1cc(CNCCc2c[nH]c3ccccc23)cc(Cl)c1OC
  OX1R antag: 105* | STK33 inh: -1.0
> Cc1c(C(=O)C(=O)N2CCOCC2)c2ccccc2n1Cc1ccccc1
  OX1R antag: 17 | STK33 inh: /

> Cc1ccc(C)c(NC2=NCCCS2)c1
  OX1R antag: 12 | STK33 inh: 1.5
> N#Cc1c(N2CCNCC2)nc(-c2ccco2)c2c1CCCC2
  OX1R antag: 5 | STK33 inh: 2.9
> CC1CN(CC(=O)c2ccccc2Cl)CC(C)O1 (stereo not given)
  OX1R antag: 6 | STK33 inh: 7.0
> CCc1ccc(N2C(=O)NC(=O)/C(=C\c3cccn3CCOc3ccc(C(C)C)cc3)C2=O)cc1
  OX1R antag: 3 | STK33 inh: -1.0
> Cc1cc(Cc2c(O)[nH]c(=S)[nH]c2=O)ccc1OC(C)C
  OX1R antag: 5 | STK33 inh: -0.4
> OC(c1ccc(F)cc1)C(c1ccccc1)N1CCOCC1 (stereo not given)
  OX1R antag: 8 | STK33 inh: 0.6
> COc1ccc(-n2cnc3cc(C(=O)N4CCC5(CC4)OCCO5)ccc32)cc1
  OX1R antag: 2 | STK33 inh: -0.2
> COC(=O)Cn1cc(C=C2C(=O)NC(=O)NC2=O)c2ccccc21
  OX1R antag: 7 | STK33 inh: -1.0
> COc1ccc(C2NCc3ccc4c(c3-n3cccc32)OCO4)cc1O (stereo not given)
  OX1R antag: 17 | STK33 inh: 1.2
